A488 fluor – compound fluoresces in the A488 spectral region. compound autofluorescence, A488 spectral region, dye equivalency; active compounds read high. max dye equivalency, M. hit rate 0.1% among 59,000; active = above 10 nM dye equivalent; inconclusive = 1 to 10 nM; inactive = 1 nM or less; about half of its hits are not listed in these tables;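 further: highest value over a series up to 38 µM; compound alone in buffer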
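Readout is A488 dye-equivalent concentration, calibrated by a per-plate six-point Alexa 488 series. Compounds in 100 mM Tris buffer pH 8.0 were incubated 15 min at room temperature. Plates were imaged using 480 nm excitation/540 nm emission filters.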
TSHR agonist – agonists of human thyroid stimulating hormone receptor | P16473 | HEK293-CNG-TSHR cells (CNG channel as cAMP sensor), membrane potential dye, cAMP | Potency, µM (titrated, usually from 57.1 µM), without a hit: at the top dose activation, actives largely listed as activators | hit rate 0.48% among 73,000; active = well fitted activation curve of enough size with the parental cells flat; inconclusive = any curve in the parental cells; inactive = parental cells flat and receptor cells flat or falling; further: potency means the concentration at half of the fitted maximal effect; % of control where 0% means no effect; weak receptor curves with flat parental cells got no call and are not listed
Target sequence (P16473 whole entry, looked up): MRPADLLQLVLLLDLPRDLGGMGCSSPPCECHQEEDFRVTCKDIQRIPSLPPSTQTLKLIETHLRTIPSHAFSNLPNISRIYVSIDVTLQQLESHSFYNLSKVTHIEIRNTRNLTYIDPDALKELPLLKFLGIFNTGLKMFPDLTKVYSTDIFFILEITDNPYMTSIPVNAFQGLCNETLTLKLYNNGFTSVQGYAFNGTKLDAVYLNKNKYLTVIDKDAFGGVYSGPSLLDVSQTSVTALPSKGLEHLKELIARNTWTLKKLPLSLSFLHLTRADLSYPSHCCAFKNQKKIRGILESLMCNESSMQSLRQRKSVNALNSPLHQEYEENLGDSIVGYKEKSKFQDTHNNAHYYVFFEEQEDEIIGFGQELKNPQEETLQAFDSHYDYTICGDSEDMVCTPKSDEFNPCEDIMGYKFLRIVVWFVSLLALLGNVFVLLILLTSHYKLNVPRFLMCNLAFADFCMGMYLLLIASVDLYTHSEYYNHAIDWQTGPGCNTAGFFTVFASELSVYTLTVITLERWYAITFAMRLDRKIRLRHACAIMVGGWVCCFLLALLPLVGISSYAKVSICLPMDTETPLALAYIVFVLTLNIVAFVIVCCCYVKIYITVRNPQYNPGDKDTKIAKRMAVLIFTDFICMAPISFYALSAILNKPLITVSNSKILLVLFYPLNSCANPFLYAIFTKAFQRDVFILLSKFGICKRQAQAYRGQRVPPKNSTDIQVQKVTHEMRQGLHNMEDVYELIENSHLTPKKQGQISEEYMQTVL
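HEK 293 cells stably expressing TSHR and a cAMP-gated CNG channel; parental CNG-only cells as counterscreen. Cells preloaded 60 min with membrane potential dye plus 100 uM RO 20-1724, then compound 30 min; fluorescence read at 590 nm.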
Resorufin autofl – resorufin region autofluorescence; Compound fluorescence, resorufin region 547/598 nm, buffer; active compounds read high; hit rate 0.04% among 59,000; AID 588; max dye-equivalent concentration, M; active = above 10 nM dye equivalent; inconclusive = 1 to 10 nM; inactive = 1 nM or less; a few of its hits are not listed in these tables; further: highest value over a series up to 38 µM
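Dye-equivalent concentration values derive from comparing each well's 547/598 nm fluorescence against resorufin standards included on every plate. Incubation was 15 min at room temperature in 100 mM Tris, pH 8.0.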
A647 fluor – compound fluoresces in the A647 spectral region; AID 592; 59,000 tested, under 10 active; Compound fluorescence, A647 channel (570/671 nm), Tris buffer; max dye-equivalent concentration, M; active means above 1 µM dye equivalent; inconclusive means 0.1 to 1 µM; inactive means 0.1 µM or less;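 further: values scaled relative to a standard on each plate; highest value over a series up to 38 µM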
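Compounds pinned into 100 mM Tris pH 8.0, 15 min at room temperature, then read with 570 nm excitation/671 nm emission filters. Fluorescence normalized to an on-plate six-point Alexa 647 standard curve, giving dye-equivalent concentration per compound concentration.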
AID923 – qHTS Assay for Allosteric/Competitive Inhibitors of Caspase-1: Spectroscopic Profiling in AFC Spectral Region; compound fluorescence, AFC spectral region (405/520 nm); almost no hit is shown here; Potency, µM (doses to about 57.5 µM), for the others: at the top dose fluorescence increase, actives largely listed as activators; hit rate 1.1% among 75,000; AID 923, 2007; active means well fitted activation curve with a large enough effect; inconclusive means small, poorly fitted or top-dose-only effect;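 further: potency means the concentration at half of the fitted maximal effect; 0% is about no effect; scaled to a free AFC standard on each plate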
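Titrations up to 57 uM read every 20 sec for 3 min (405/520 nm) with 50 nM caspase 1 and 5 uM Ac-WEHD-AFC, pH 7.5 HEPES buffer. Fluorescence-vs-time intercept gave baseline, scaled against on-plate AFC standard.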
Numbers without * were called inactive; i = inactive; u = inconclusive; x = not tested or not shown; [ ] = dose if it differs, or a comment. A portion of the library; rates above refer to the full screens.

Order of values: A488 fluor | TSHR agonist | Resorufin autofl | A647 fluor | AID923
Cc1ccc(Cl)cc1N1CCN(S(=O)(=O)c2ccc3c(c2)OCCO3)CC1
    i | 9% | i | 4.4e-08 | 1.9%
CC(C)NS(=O)(=O)c1ccc(CCC(=O)N2CCOCC2)cc1
    i | 4% | i | 3.7e-08 | 1.0%
O=C(CSc1nnnn1-c1ccc2c(c1)OCCO2)N1CCc2ccccc21
    i | 16% | i | 1.5e-08 | -0.2%
O=C(N1CCN(c2ccccc2)CC1)C12CC3CC(CC(C3)C1)C2
    i | 8% | i | 5.6e-08 | 1.3%
CN(C1CCCCC1)S(=O)(=O)Cc1ccccc1
    i | 18% | i | 1.9e-09 | 0.3%
COc1cccc(C2/C(=C(/O)c3cnn(-c4ccccc4)c3C)C(=O)C(=O)N2CCN(C)C)c1 (stereo not drawn)
    i | x | i | 7.7e-09 | x
O=C(Cc1cccs1)Nc1cccnc1
    i | -2% | i | 3.5e-08 | -1.0%
COc1ccc(CNC(=O)[C@H](C)NC(=O)C2CCN(S(=O)(=O)c3ccc(C)cc3)CC2)cc1
    i | x | i | 2.7e-08 | x
CCOC(=O)N1CCC(n2c(=S)[nH]c3cc(OC)c(OC)cc3c2=O)CC1
    i | 3% | i | 2.9e-09 | 0.4%
O=C(CN1CCN(Cc2ccccc2)CC1)c1ccc(Br)cc1
    i | 15% | i | 1e-09 | 1.2%

Record cards, from the list above. Order of screens: A488 fluor	TSHR agonist	Resorufin autofl	A647 fluor	AID923
Listed for O=C(CN1CCN(Cc2ccccc2)CC1)c1ccc(Br)cc1 : i	15%	i	1e-09	1.2%
Listed for CCOC(=O)N1CCC(n2c(=S)[nH]c3cc(OC)c(OC)cc3c2=O)CC1 : i	3%	i	2.9e-09	0.4%

Additional compounds:
Order of values: A488 fluor | TSHR agonist | Resorufin autofl | A647 fluor | AID923
O=C(OCc1c(Cl)cccc1Cl)c1cccnc1
    i | 19% | i | 1.6e-09 | -1.0%
Nc1ccccc1OCCOCCOCCOc1ccccc1N
    i | -1% | i | 1.5e-08 | -3.0%
O=C(NCc1ccccc1)NC(=O)c1ccccc1
    i | 0% | i | 2.3e-09 | 1.6%
O=C1C2C3C=CC(C3)C2C(=O)N1c1n[nH]c(CCc2ccccc2)n1 (stereo not drawn)
    i | 8% | i | 1e-09 | 1.1%
CCOC(=O)CSc1ccc2nnc(-c3cccs3)n2n1
    x | u | x | x | -3.8%
CCn1ncc(Cl)c1C(=O)NC(C)c1ccccc1 (stereo not drawn)
    i | 5% | i | 1.1e-09 | -0.8%
c1ccc2c(c1)Oc1ccccc1S2
    x | -5% | x | x | 1.2%
COCCNc1nc(C)nc2c1nc(-c1ccccc1)n2C1CCN(Cc2ccccc2)C1 (stereo not drawn)
    x | u | x | x | 0.0%
CCCCN(CC)S(=O)(=O)c1ccc(C(=O)Nc2nnc(CSC)o2)cc1
    i | 15% | i | 1e-09 | 1.9%
CCCC(=O)Nc1c(C)nn(C(=O)CCC)c1C
    x | 5% | x | x | -0.1%
CCOC(=O)CSc1cc(C)nc(NC(C)=O)n1
    i | 1% | i | 2.2e-08 | 0.8%
Cn1c(=O)n(CCCOc2ccc(Br)cc2)c2ccccc21
    i | u | i | 1.4e-08 | -1.2%
COC(=O)C1C(=O)C2=C(CC1C)NC(=O)CC2c1ccc(O)c(OC)c1 (stereo not drawn)
    i | -4%[11.4 µM] | i | 3.9e-08 | 0.2%
CN1CCCC(OC(=O)COc2ccccc2)C1 (stereo not drawn)
    i | 8% | i | 1e-09 | 0.6%
O=C(Nc1ccc(Nc2ccccc2)cc1)C1CC1
    i | -11% | i | 1e-09 | 0.2%
O=C(CSc1nnc2ccccn12)c1ccc(OC(F)F)cc1OC(F)F
    i | 2% | i | 3.4e-08 | 0.9%
Cc1nc2nc(SCC(=O)N3CCOCC3)nn2c(C)c1Cc1ccccc1
    i | 3%[11.4 µM] | i | 2.7e-08 | -1.9%
Cc1cc(NC(=O)c2ccc(S(=O)(=O)N(C)C)cc2)no1
    i | -2% | i | 2.1e-09 | -0.7%
O=C(CSc1nc2ccccc2c(=O)n1CC1CCCO1)N1CCN(c2ccccc2)CC1 (stereo not drawn)
    i | u | i | 1e-09 | 0.0%
Cc1nc2cc(C(=O)O)ccc2n1-c1ccccc1
    x | -7% | x | x | -0.1%

Already shown: 2 of the compounds above.
Order of values: A488 fluor | TSHR agonist | Resorufin autofl | A647 fluor | AID923
O=C(CSc1nc2ccccc2c(=O)n1CC1CCCO1)N1CCN(c2ccccc2)CC1 (stereo not drawn)
    i | u | i | 1e-09 | 0.0%
Cc1nc2cc(C(=O)O)ccc2n1-c1ccccc1
    x | -7% | x | x | -0.1%

(continued)
Order of values: A488 fluor | TSHR agonist | Resorufin autofl | A647 fluor | AID923
Nn1c(COc2ccccc2)nc2ccccc2c1=O
    i | 11% | i | 2.5e-08 | 0.1%
Cc1ccc(CCNC(=O)C2CCCN(C(=O)c3cc4sccc4n3C)C2)cc1 (stereo not drawn)
    i | u | i | 2.7e-08 | 0.4%
CCNC(=O)CC1C(=O)N(c2ccc(C)cc2)C(=O)N1Cc1ccccn1 (stereo not drawn)
    i | 0% | i | 4.1e-08 | 1.4%
Cc1occc1C(=O)NCc1ccc2c(c1)OCO2
    x | 0%[11.4 µM] | x | x | -1.8%
COc1cc2c(cc1OC)C(c1ccco1)CC(=O)N2 (stereo not drawn)
    x | -1% | x | x | 2.7%
COc1ccc(N(Cc2cc(=O)[nH]c3ccccc23)C(=O)c2ccco2)cc1
    i | x | i | 1e-09 | 2.1%
CCCn1nnc(NC(=O)Cc2ccc(Cl)cc2)n1
    i | -5% | i | 2.6e-08 | -1.3%
COC(=O)C1=C(N)Oc2cc(C)n(Cc3cccnc3)c(=O)c2C1c1ccccc1OC (stereo not drawn)
    i | 6% | i | 8.2e-09 | -0.9%
Cn1c(C(=O)NC2CCCC2)cc2c(=O)n(C)c3ccccc3c21
    x | 1% | x | x | -4.7%
O=C(NCC1CCCO1)C1c2ccccc2C(=O)N1Cc1ccc2c(c1)OCO2 (stereo not drawn)
    i | 3% | i | 8.6e-09 | -0.8%
CC(=O)c1c(C(C)=O)c(C)n(CCCCn2c(C)c(C(C)=O)c(C(C)=O)c2C)c1C
    i | 6% | i | 9.3e-09 | -0.9%
O=C1CC(N(Cc2ccco2)C(=O)Nc2ccc(F)cc2)C(=O)N1c1ccc(F)cc1 (stereo not drawn)
    i | x | i | 7.2e-09 | 0.4%
COc1ccc(CC(=O)Nc2cccc(-c3nnc(-c4ccccc4)o3)c2)cc1OC
    i | x | i | 2.6e-08 | -1.5%
O=C(CN1CCN(Cc2ccc(F)cc2Cl)C1=O)NCCCN1CCOCC1
    x | 11% | x | x | 0.0%
CC1=C(C(=O)Nc2ccccc2C)C(c2cccnc2)n2nc(CCCO)nc2N1 (stereo not drawn)
    i | -3% | i | 1e-09 | 1.1%
CNC(=O)c1ccccc1NC(=O)c1ccc(C)c(S(=O)(=O)N2CCCCC2)c1
    i | x | i | 1.5e-08 | 0.5%
CCN(CC)c1ccc(NC(=O)Cn2nnc(-c3cccc(OC)c3OC)n2)c(C)c1
    i | 8% | i | 1.3e-09 | -3.2%
COc1ccc2[nH]cc(CCNc3cc(-c4c(C)noc4C)ncn3)c2c1
    i | 7% | i | 1e-09 | 2.4%
CC(C)CNC1=CC(=O)CC(c2ccco2)C1 (stereo not drawn)
    x | 13% | x | x | 2.5%
Cn1c(C(=O)NCCN2CCN(Cc3ccccc3)CC2)cc2c(=O)n(C)c3ccccc3c21
    x | 3% | x | x | 4.1%
COc1cccc(N(CC(=O)N2CCN(C)CC2)S(=O)(=O)c2ccc(C)cc2)c1
    i | 4% | i | 4.7e-09 | 1.1%
COc1cccc(C(=O)N(Cc2nc(-c3cccc(C)c3)no2)C(C)C)c1OC
    i | u | i | 1.5e-09 | -0.1%
Cc1nc(NC(=O)c2csc3ccccc23)sc1C
    x | 1% | x | x | -1.2%
COc1ccc(-c2nnc(SCc3csc(N)n3)n2C)cc1
    i | 9% | i | 1.3e-08 | -1.5%
CCOc1ccccc1CNC(=O)C1CCN(C(=O)c2sccc2-n2cccc2)CC1
    x | 19% | x | x | -0.1%
CCOC(=O)N1CCN(Cc2nc(-c3ccccc3)no2)CC1
    i | 1% | i | 1.7e-08 | -1.8%
C=CCNC(=O)c1nn2cccnc2c1Cl
    i | -2% | i | 1e-09 | -0.7%
COc1ccc(CCNC(=O)CN2C(=O)C3(OCCCO3)c3ccccc32)cc1OC
    i | 5% | i | 2.4e-08 | -0.4%
CCCCN(C)CCNC(=O)c1ccc2c(c1)NC(=O)C(N1CCCCC1)S2 (stereo not drawn)
    i | 1% | i | 1.1e-08 | 2.2%
Cc1cc(N2CCN(C(c3ccccc3)c3ccc(Cl)cc3)CC2)n2ncnc2n1 (stereo not drawn)
    x | 25µM* | x | x | -1.1%
O=C(CSc1nnc(-c2ccc(Br)cc2)o1)N1CCN(C(=O)c2ccco2)CC1
    i | -3% | i | 1.1e-08 | -0.3%
CC(=O)Oc1ccc(N2C(=O)C3C(C2=O)C2(C)C=CC3(C)O2)cc1 (stereo not drawn)
    x | 17% | x | x | 0.0%
COc1ccc(NC(=O)C2CC(=O)N(C(C)C)C2)cc1 (stereo not drawn)
    x | -10% | x | x | -0.3%
CCOc1ccccc1N1CCN(S(=O)(=O)c2ccc(Cl)s2)CC1
    i | 23% | i | 2.7e-08 | 0.2%
CCCCOCC1CN(c2ccccc2)C(=O)CS1 (stereo not drawn)
    i | u | i | 3.5e-09 | 0.2%
Cn1c(=O)[nH]c(=O)c2c1nc(CN1CCOCC1)n2CCc1ccccc1
    i | 26% | i | 1e-09 | 0.0%
COC(=O)c1ccccc1NC(=O)C1CCN(S(=O)(=O)c2cc(OC)ccc2OC)CC1
    i | 3% | i | 5e-09 | 0.7%
c1coc(-c2nnc(-c3ccc4c(c3)OCO4)o2)c1
    x | u | x | x | 2.7%
O=C(O)c1ccccc1-c1nc2ccccc2c(=O)[nH]1
    i | -2%[11.4 µM] | i | 3.9e-09 | 1.1%
COc1ccc(-c2nnc(SCC(=O)c3cccs3)o2)cc1
    i | 18% | i | 1e-09 | 1.0%
Cc1ccc(S(=O)(=O)n2nc(-c3cccnc3)nc2N)cc1
    i | -3% | i | 1.9e-08 | 0.0%
CC1CN(C(=O)C2CCCN2S(=O)(=O)c2ccc(Cl)cc2)CC(C)O1 (stereo not drawn)
    i | -1% | i | 8.8e-09 | 0.3%
CCOC(=O)c1[nH]c(=O)[nH]c1CSc1ccccn1
    i | -13% | i | 1.4e-08 | 0.6%
O=S(=O)(Nc1cccnc1)c1ccc2c(c1)OCCO2
    i | 5% | i | 3.7e-08 | -0.1%
Cn1nnnc1SCCNC/C=C/c1ccccc1
    i | 6% | i | 3.2e-08 | -0.3%
CCc1cccc(NC(=O)Cn2ncn3c(cc4ccccc43)c2=O)c1
    i | u | i | 3.6e-08 | -0.6%
CC(=O)c1c(C)nc(-c2ccc(Cl)cc2)nc1N=CN(C)C
    i | x | i | 3.8e-09 | -0.2%
CC1(C)CC2(CCCN3C(=O)CSC32)CCS1 (stereo not drawn)
    i | -4% | i | 1e-09 | 1.1%
Cc1cccc(N2C(=O)N(c3ccccc3C)C3CS(=O)(=O)CC32)c1 (stereo not drawn)
    i | 7% | i | 2.5e-08 | 0.4%
O=C(c1ccc(COc2ccc(Cl)cc2)o1)N1CCN(Cc2ccc3c(c2)OCO3)CC1
    i | u | i | 3e-08 | 0.3%
Cc1cc(C)n(-c2cccc3cccnc23)n1
    i | -14% | i | 1e-09 | 0.1%
OCc1nnn(-c2cccc(C(F)(F)F)c2)c1CO
    i | -1% | i | 2.4e-08 | -1.5%
Cc1cc(S(=O)(=O)N(Cc2ccccc2)Cc2ccc(N(C)C)cc2)ccc1-n1cnnn1
    i | 10% | i | 1e-09 | 1.9%

Screens: PubChem BioAssay, National Center for Advancing Translational Sciences (NCATS)
